Compound activity as filed in PubChem.
HPGD block = inhibitors of human 15-hydroxyprostaglandin dehydrogenase (HPGD); 4.3% of 150,000 active; AID 894; purified HPGD, NADH fluorescence kinetic, PGE2 substrate; Potency, µM, inactives show at the top dose activity change, negative = inhibition, hits mostly inhibitors; active = well fitted inhibition curve with a large enough effect (not every such curve was filed as active); inconclusive = small, poorly fitted or top-dose-only effect, or another doubt; inactive = no such curve, though single readings can be large or run the other way;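 further: top concentration of the series not given in the record; plate controls included wells without enzyme; inactives centre near -10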
Target sequence (P15428 whole entry, looked up): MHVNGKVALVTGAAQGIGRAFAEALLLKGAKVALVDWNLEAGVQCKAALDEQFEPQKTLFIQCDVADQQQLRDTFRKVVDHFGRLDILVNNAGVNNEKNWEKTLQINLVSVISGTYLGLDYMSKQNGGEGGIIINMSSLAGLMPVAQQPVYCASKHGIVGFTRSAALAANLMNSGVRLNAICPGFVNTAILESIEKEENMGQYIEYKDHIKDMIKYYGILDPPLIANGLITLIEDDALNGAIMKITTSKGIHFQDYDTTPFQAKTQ
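NADH formation kinetics: reaction with 30 uM PGE2 and 1 mM NAD+ (final), 20 nM enzyme, Tris-HCl pH 8 with Tween 20, after 15 min compound preincubation at room temperature. Fluorescence change, last versus first of five reads.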
* hit, by the source's call; ? = inconclusive. On the % scale 0 is the no-effect control and ±100 the full control effect; potency means the concentration at half of the fitted maximal effect. A portion of the library; rates above refer to the full screens.

HPGD block,SMILES
-19%,O=S(=O)(c1ccc2c(c1)OCCO2)N1CCC(c2nc3ccc(Cl)cc3[nH]2)CC1
-12%,S=c1[nH]nc(C2COc3ccccc3O2)o1 (stereo not drawn)
-19%,BrC(=C\c1ccccc1)/C=N/Nc1nc2ccccc2[nH]1
-9%,Cc1[nH]n(-c2ccccc2)c(=O)c1C=Nc1cnc2ccccc2c1
-5%,CC1=C(C(=O)Nc2ccccc2C)C(c2ccc(C)o2)NC(=S)N1 (stereo not drawn)
-6%,Cc1cccc(OCc2nc3ccccc3c(=O)n2N)c1
-16%,CSc1nsc(SCC(=O)N2CCN(c3ccccc3)CC2)n1
-29%,O=C(COc1ccccc1-c1ccccc1)N/N=C/c1ccc2ccccc2c1
1%,Cc1ccccc1NC(=O)CCN1C(=O)CSC1=O
-22%,COc1ccc(NC(=O)CN(c2ccc([N+](=O)[O-])cc2)S(=O)(=O)c2ccccc2)cc1
-21%,CCOC(=O)c1c(C)[nH]c(C(=O)OCC(=O)Nc2cc(Cl)ccc2OC)c1C
-6%,COc1cccc(C2C(C(=O)OCc3ccccc3)=C(C)Nc3ncnn32)c1OC (stereo not drawn)
2%,O=C(CN1CCCN(Cc2ccc(F)cc2Cl)C1=O)NCc1ccccc1
-7%,CCOC(=O)c1ccc(N2CN(CCc3ccccc3)CNC2=S)cc1
-6%,Cc1cccc(OCc2nnc(SCC(=O)Nc3cc(C)on3)n2C)c1
-11%,Cc1ccc(C(=O)Nc2cc(=O)n(C)c(=O)n2C)o1
-3%,CN(C)CCN(C(=O)c1cc(Cl)sc1Cl)c1nc2ccc(F)cc2s1
-7%,Cc1nn(Cc2ccc(Cl)cc2)c(C)c1NC(=O)c1c(-c2ccccc2)noc1C
-6%,O=S(=O)(c1ccc(NC(=S)Nc2ccccc2)cc1)N1CCOCC1
-10%,CCOC(=O)c1cc(-c2ccccc2)n(CCC(=O)N2CCN(c3ccccn3)CC2)c1C
-17%,O=C(CCSc1nc2ccccc2s1)N/N=C/c1c(O)ccc2ccccc12
-3%,CC(C)CN(C(=O)CN1CCN(S(=O)(=O)c2ccccc2)CC1)c1c(N)n(CC(C)C)c(=O)[nH]c1=O
-22%,O=c1cc(CO)oc(C(Nc2ccccn2)c2ccc(F)cc2)c1O (stereo not drawn)
-14%,COC(=O)c1ccc(C(/C=C/[C@@H](C)C(=O)N(C)Cc2ccccc2)NC(=O)OCc2ccccc2)cc1 (stereo partly drawn)
?,Cn1c(N)c(C(=O)COC(=O)c2cc(-c3ccco3)nc3ccccc23)c(=O)n(C)c1=O
-28%,CCOC(=O)c1ccc(NC(=O)CCC(=O)OC)cc1
-3%,COC(=O)c1nn(-c2ccccc2)nc1-c1nn(-c2ccccc2)nc1C(=O)OC
-7%,CSc1ccc(Cl)c(C(=O)NCCOc2cc(C)ccc2C(C)C)c1
-4%,CCOc1ccc(NC(=O)Cn2nnc(-c3ccccc3NC(=O)C3CC3)n2)cc1
-12%,CN1CCN(c2nc(-c3ccc(Br)cc3)nnc2-c2ccccc2)CC1

Structures from the list above that contain two or more sulfur atoms (four):
HPGD block,SMILES
-16%,CSc1nsc(SCC(=O)N2CCN(c3ccccc3)CC2)n1
-3%,CN(C)CCN(C(=O)c1cc(Cl)sc1Cl)c1nc2ccc(F)cc2s1
-6%,O=S(=O)(c1ccc(NC(=S)Nc2ccccc2)cc1)N1CCOCC1
-17%,O=C(CCSc1nc2ccccc2s1)N/N=C/c1c(O)ccc2ccccc12

(list continues)
HPGD block,SMILES
-6%,CC(C)[C@@H](N)C(=O)O
-14%,COC(=O)C(CC(C)C)NC(=O)c1ccc([N+](=O)[O-])cc1 (stereo not drawn)
?,CN(C)S(=O)(=O)c1ccc(N2CCCC2)c(C(=O)Nc2nc(-c3ccc(F)cc3)cs2)c1
-15%,C/C(=N\O)C1(C)N(O)C(C)(C)C(c2ccc(F)cc2)=[N+]1[O-] (stereo not drawn)
-19%,CCc1ccc(NC(=O)C(C)OC(=O)c2cccc(S(=O)(=O)N3CCc4ccccc4C3)c2)cc1 (stereo not drawn)
-6%,Cc1cc(C(=O)Nc2nc(C)c(C(=O)N(C)C)s2)ccc1[N+](=O)[O-]
-15%,Cn1c(=O)n(CC#N)c2ccccc21
4%,CCOc1ccc(OCCOCCN2CCc3ccccc3C2)cc1
-5%,C=COCCNC(=O)Nc1ccc(Cl)cc1Cl
-24%,CC1=C(C)CC(C(=O)Nc2nc(-c3ccc(C)cc3C)c(C)s2)C(C(=O)O)C1 (stereo not drawn)
-9%,N#Cc1cccc(NC(=O)N2CCC3(CC2)CCN(C(=O)c2ccco2)CC3)c1
-7%,O=C(Nc1ccccc1C(=O)OC1CCOC1=O)c1ccco1 (stereo not drawn)
-3%,Cc1ccccc1Br
-6%,COc1ccc(C2CC(c3ccc(OC)cc3)n3nc(NC(=O)c4ccco4)nc3N2)cc1 (stereo not drawn)
-17%,COc1ccc(CNc2cccc(F)c2)cc1Br
?,Cc1csc(NC(=O)c2ccccc2O)n1
-7%,Cc1ccc(NC(=O)C2C3/C=C\CCCCC32)cc1C (stereo not drawn)
1%,O=C(NCCN1CCOCC1)Nc1ccc(Cl)cc1Cl
8.9µM*,CC1CCCCN1CC(=O)NCc1ccc2c(c1)OCO2 (stereo not drawn)
-7%,Cc1cccc(C)c1N1CCN(c2ccc3nnc(C(F)(F)F)n3n2)CC1

Reprinted at random: five entries already listed, in no set order.
HPGD block,SMILES
8.9µM*,CC1CCCCN1CC(=O)NCc1ccc2c(c1)OCO2 (stereo not drawn)
-7%,O=C(Nc1ccccc1C(=O)OC1CCOC1=O)c1ccco1 (stereo not drawn)
-6%,COc1ccc(C2CC(c3ccc(OC)cc3)n3nc(NC(=O)c4ccco4)nc3N2)cc1 (stereo not drawn)
-9%,N#Cc1cccc(NC(=O)N2CCC3(CC2)CCN(C(=O)c2ccco2)CC3)c1
?,Cc1csc(NC(=O)c2ccccc2O)n1

Going on with the list.
HPGD block,SMILES
?,O=C(COC(=O)c1cc(-c2cccc3ccccc23)nc2ccccc12)NC1CCS(=O)(=O)C1 (stereo not drawn)
-8%,Cc1cc(C)nc(SCc2nnc(SCC(N)=O)n2Cc2ccco2)n1
-6%,O=C(COC(=O)/C=C/c1cnc2ccccc2n1)NCC(F)(F)F
-12%,C=CCNC(=S)NNC(=O)c1csc(C)c1C
-1%,CCc1cccc(CC)c1NC(=O)c1cccc(NC(=O)c2ccccc2)c1
-4%,Cc1cc(NC(=O)c2cc(F)c(F)cc2Cl)no1
-1%,CCOC(=O)CCC(NC(=O)CCCCC(=O)NC(CCC(=O)OCC)C(=O)OCC)C(=O)OCC (stereo not drawn)
-12%,O=C(c1ccco1)N1CCN(S(=O)(=O)c2ccc3c(c2)CCN3C(=O)C2CC2)CC1
?,CCN(Cc1ccccc1)c1ccc(/C=N/NS(=O)(=O)c2ccc(C)c([N+](=O)[O-])c2)cc1
-16%,Cc1ccc2oc(=O)c3c4cc(O)c(O)cc4oc3c2c1
-14%,O=C(CSc1nnc(Cc2cc(=O)[nH]c(=O)[nH]2)n1-c1ccccc1)N1CCCC1
-7%,COc1cc(C(=O)OCC(=O)c2c[nH]c3ccccc23)ccc1OCC(=O)N1CCOCC1
-13%,N=C1S/C(=C\c2ccccc2F)C(=O)N1c1ccc(F)cc1
?,Cc1ccccc1Cc1n[nH]c(=S)n1N
-21%,Cc1ccc(C2CC(=O)Oc3cc(C)c(Cl)cc32)cc1 (stereo not drawn)
-14%,Cc1ccc(-n2[nH]c(C)c(/C=N/c3ccccn3)c2=O)cc1
?,O=C(NC12CC3CC(CC(C3)C1)C2)c1ccc(-c2ccc(Cl)cc2)o1
-13%,O=C(NCC(c1cccnc1)N1CCN(c2ccccc2F)CC1)OCc1ccccc1 (stereo not drawn)
-8%,CN(C)c1ccc(NC(=O)CN2CCC(C(=O)c3ccc(F)cc3)CC2)cc1
-17%,COc1cc(/C=C/C(=O)N(Cc2ccccc2)c2ccccn2)cc(OC)c1OC
-3%,O=C(Cc1cccs1)Nc1nnc(SCc2ccc(C(F)(F)F)cc2)s1
-6%,Cc1ccc(S(=O)(=O)N2CCN(C(=O)CN3CCc4ccccc4C3)CC2)cc1
-16%,Cc1cccc(-n2c(-c3cccc([N+](=O)[O-])c3)nc3nc4ccccc4nc32)c1
-17%,COC(=O)c1cc(NC(=O)C2(S(=O)(=O)c3ccc(Cl)cc3)CC2)cc(C(=O)OC)c1
0%,O=C(CSc1nc2ccccc2c(=O)n1NC(=O)Cc1ccccc1)NCCc1ccccc1
-1%,COc1ccc(N/C=C/C(=O)C(F)(F)F)cc1
?,Cc1ccccc1N1CCN(c2ncnc3c2cnn3Cc2ccc(Cl)cc2)CC1
-9%,CC(C)c1nc2n[nH]c(N)c2c2c1CCC2
-12%,CC(C)C(=O)Nc1ccc(C(=O)NNC(=O)CCc2ccccc2)cc1
-11%,O=C1C(Cl)=C(N2CCOCC2)C(=O)N1CCc1ccccc1

Arranged by value in HPGD block (rising): 3 from the list above.
Compound	HPGD block
O=C1C(Cl)=C(N2CCOCC2)C(=O)N1CCc1ccccc1	-11%
COc1cccc(C2C(C(=O)OCc3ccccc3)=C(C)Nc3ncnn32)c1OC (stereo not drawn)	-6%
CC(C)CN(C(=O)CN1CCN(S(=O)(=O)c2ccccc2)CC1)c1c(N)n(CC(C)C)c(=O)[nH]c1=O	-3%

Continuation.
HPGD block,SMILES
-20%,O=C(COc1ccc(S(=O)(=O)NC2CCCCC2)cc1Cl)Nc1ccc2c(c1)OCO2
?,Cc1cc(=O)oc2cc(OC(C)C(=O)O)c(Cl)cc12 (stereo not drawn)
?,CCOC(=O)c1[nH]c2ccc(F)cc2c1NC(=O)C1=COCCO1
-26%,CSCc1cc(N2CCOCC2)nc(SCc2ccc(Cl)c(Cl)c2)n1
-9%,Cc1c(-c2ccco2)[n+](=O)c2c(n1[O-])CCC2
?,O=C(Cc1c(O)c2ccccc2[nH]c1=O)NCc1ccccc1
14µM*,Cc1ccsc1/C=N/n1c(-c2ccco2)n[nH]c1=S
32µM*,CCN(CC(=O)NCc1ccc(F)cc1)Cc1nc2cc(Cl)ccc2c(=O)[nH]1
22µM*,O=C(NCCOc1ccccc1F)c1cc(F)c(F)cc1Cl
-16%,COc1ccc(Cn2nnnc2C(c2cccs2)N2CCCCCC2)cc1 (stereo not drawn)
25µM*,COc1ccc(NC(=O)C2C3C=CC(C3)C2C(=O)NCc2ccco2)cc1 (stereo not drawn)
0%,COc1ccc(S(=O)(=O)CCC(=O)O)cc1
5µM*,CN=c1scc(-c2cccs2)n1/N=C/c1ccc(O)c(O)c1O
-10%,CCCCCCNc1cc(C)oc(=O)c1C(C)=O
?,COc1cc2c(cc1OC)C1=NC(=O)CN1C(SCc1ccccc1C)=N2
-14%,Cn1c(CSc2ncccn2)nnc1SCC(=O)N1CCCCC1
3%,Cc1ccc(N(CC(O)CN2CCOCC2)S(=O)(=O)c2ccc3ccccc3c2)cc1 (stereo not drawn)
6%,NS(=O)(=O)c1ccc(CNC(=O)NC2(c3ccccc3)CC2)cc1
28µM*,COC(=O)c1ccc(NC(=S)NNC(=O)CC(C)C)cc1
-28%,CN(C)c1ccc(N=c2sc3ccccc3n2C)cc1
-12%,O=C1C(=O)c2ccc(-c3ccccc3)cc2-c2ccccc21
?,CCCOC(=O)c1ccc(Oc2c(-c3ccc(OCC)cc3O)n[nH]c2C)cc1
-5%,CCOC(=O)C1C(=O)CC(C)(O)C(C(=O)OCC)C1c1cccs1 (stereo not drawn)
-1%,O=C(CCCOc1ccccc1)Nc1ccccc1C(F)(F)F
?,COc1ccc2[nH]c(=O)c(C(c3nnnn3C(C)(C)C)N(Cc3ccco3)CC3CCCO3)cc2c1 (stereo not drawn)
-14%,Cc1csc(NC(=O)CSc2nnc(NC(=O)COc3ccc(Cl)cc3)s2)n1
-14%,CC(=O)Nc1ccc(SCC(=O)c2cc(C)n(Cc3cccs3)c2C)cc1
-4%,COc1ccc(NC(=O)CC2COc3ccccc3O2)c(OC)c1 (stereo not drawn)
-29%,CCOC(=O)c1c(C)[nH]c(C(=O)N/N=C\c2ccccc2O)c1C
13µM*,O=C(NCc1ccco1)c1cccc(-c2nnc(-c3ccccc3)o2)c1
6%,NCCCC[C@H](N[C@@H](CCc1ccccc1)C(=O)O)C(=O)N1CCC[C@H]1C(=O)O
-2%,COC(=O)C(NNc1ccccc1)(NC(=O)c1ccccc1F)C(F)(F)F (stereo not drawn)
1%,COc1cc(CNCCO)ccc1OC1CCCC1
-18%,CCCCNC(=S)NNC(=O)c1csc(C)c1CC
-9%,CC(C)COC(=O)C1C2C=CC3(CN(C(C)c4ccc(Br)cc4)C(=O)C13)O2 (stereo not drawn)
-5%,Cc1ccc(S(=O)(=O)N2CCOC2CNC(=O)C(=O)NCc2cccnc2)cc1 (stereo not drawn)
-11%,COc1cccc(-c2cc(C(=O)Nc3cccnc3)no2)c1
-8%,O=C(CSc1nccn1-c1ncc(C(F)(F)F)cc1Cl)c1ccc(Br)cc1
-8%,Cn1cc(C(=O)N2CCc3ccccc32)cn1
-4%,COC(=O)c1cc2ccsc2n1CC(=O)N(C)C1CCCCC1
-8%,COc1ccc(-c2nc(NC(=O)C3CC(=O)N(c4ccc5c(c4)OCCO5)C3)sc2C)cc1 (stereo not drawn)
-16%,O=C(NCCN1CCN(c2ccccc2)CC1)c1cccn2c(=O)c3cc(Cl)ccc3nc12
-14%,COc1ccccc1NS(=O)(=O)c1cc([N+](=O)[O-])ccc1N/N=C/c1c(C)[nH]c2ccccc12
-2%,O=C(Cn1c(SCc2ccccc2)nc2ccccc21)N1CCOCC1
?,CN(C)C(/C=C/Nc1ccc(C#N)cc1)=C(C#N)C#N
-20%,c1ccc(-c2ccc(Oc3cc(N4CCOCC4)nc(-c4ccccc4)n3)cc2)cc1
-7%,Cc1ccc2c(Cl)cc(Cl)c(OCC(=O)Nc3ccc(C)c(S(=O)(=O)N(C)C)c3)c2n1
